Bioassay records from PubChem.
Cruzain inh noDet = qHTS Assay for Promiscuous and Specific Inhibitors of Cruzain (without detergent); purified cruzain, Z-FR-AMC fluorescence, no detergent; 200,000 tested, 2.3% active; Potency, µM, without a hit: max response, negative = inhibition, usual class: inhibitors; Cruzipain (Trypanosoma cruzi), P25779;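 also: plate controls were enzyme without inhibitor for no effect and buffer without enzyme for full effect; nearly all actives have a fitted effect of over 40% in size; top concentration of the series not given in the record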
Target sequence (P25779 123-467 limits assumed): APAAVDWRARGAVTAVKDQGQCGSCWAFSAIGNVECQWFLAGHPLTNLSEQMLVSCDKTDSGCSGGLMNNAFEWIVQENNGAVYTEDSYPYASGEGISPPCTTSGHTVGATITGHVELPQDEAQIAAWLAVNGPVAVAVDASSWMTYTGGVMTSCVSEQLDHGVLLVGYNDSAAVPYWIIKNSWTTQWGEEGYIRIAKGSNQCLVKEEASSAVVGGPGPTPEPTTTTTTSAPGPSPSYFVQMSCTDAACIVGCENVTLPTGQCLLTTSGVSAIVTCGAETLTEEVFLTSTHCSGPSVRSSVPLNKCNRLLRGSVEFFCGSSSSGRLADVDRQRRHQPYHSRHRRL
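Purified cruzain at 1.5 nM, pre-incubated 15 min with compound at room temperature in 100 mM sodium acetate pH 5.5, 5 mM DTT, 0.00005% Triton X-100. Reaction started with 2 uM Z-FR-AMC; AMC fluorescence increase over 60 s gives rate.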
Cruzain Triton = qHTS Assay for Promiscuous and Specific Inhibitors of Cruzain (with detergent) | Cruzipain (Trypanosoma cruzi), P25779 | purified cruzain, Z-FR-AMC fluorescence, 0.01% Triton | Potency, µM, without a hit: max response, negative = inhibition, most hits filed as inhibitors | 200,000 tested, 0.43% active | AID 1478, 2009;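 also: plate controls were neutral wells for no effect and buffer without enzyme for full effect; nearly all actives have a fitted effect of over 40% in size; top concentration of the series not given in the record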
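Steps: dispense cruzain (1.5 nM final) in acetate buffer pH 5.5 with DTT and 0.01% Triton X-100; pin-transfer compounds; incubate 15 min RT; add Z-FR-AMC (2 uM final); read fluorescence every 30 s, using the 60 s intensity change.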
MARV entry inh = qHTS for inhibitors of binding or entry into cells for Marburg Virus; Marburg virus pseudotyped entry inhibition, cell reporter; control for the full effect not named in the record; about a third of the inactives were read at about 46 µM; Potency, µM (doses to about 37.8 µM), inactives show at the top dose activity change, negative = inhibition, most hits filed as inhibitors; 300,000 tested, 1.8% active; AID 540276, 2011; active = well fitted inhibition curve with a large enough effect; inconclusive = small, poorly fitted or top-dose-only effect, or effect the other way; inactive = flat fitted curve, though single readings scatter; tested in HEK293 cells; about a fifth of its hits are not listed in these tables; also: % is scaled to controls: 0 for no effect and ±100 for the full control effect; luciferase read-out
LASV entry inh = qHTS for Inhibitors of binding or entry into cells for Lassa Virus; Potency, µM (highest dose often 37.9 µM), for the others: at the top dose activity change, negative = inhibition, hits mostly inhibitors; 300,000 tested, 1.2% active; Lassa virus pseudotype entry inhibition, cell reporter; control for the full effect not named in the record; AID 540256, 2011; active means well fitted inhibition curve with a large enough effect; inconclusive means small, poorly fitted or top-dose-only effect, or effect the other way; inactive means flat fitted curve, though single readings scatter; tested in HEK293 cells; also: % is scaled to controls: 0 for no effect and ±100 for the full control effect; nearly all actives have a fitted effect of over 50% in size; luciferase read-out
RE007 growth inh = qHTS Assay for Inhibitors of the HIV-1 protein Vpr | S. pombe RE007 Vpr strain, BacTiter-Glo ATP luminescence, 24 h; control for the full effect not named in the record | Potency, µM (top dose mostly 92.2 µM), inactives show top-dose activity change, negative = less growth | 360,000 tested, 0.21% active | AID 651644, 2012; active = well fitted falling curve with a large enough effect; inconclusive = small, poorly fitted or top-dose-only effect; inactive = no such curve, though single readings can be large or run the other way;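 also: % is scaled to controls: 0 for no effect and ±100 for the full control effect; nearly all actives have a fitted effect of over 50% in size; the assay follows cell death caused by Vpr and the record does not say whether a fall means rescue or toxicity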
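Fission yeast RE007 carrying one integrated HIV-1 vpr copy, seeded at OD 0.01 in PMG+AL medium with 23 nL pinned compound. Grown 24 h at 30 degrees; viability read by BacTiter-Glo luminescence after 5 min.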
NS1 inh = qHTS Assay for Inhibitors of Influenza NS1 Protein Function. S. cerevisiae slowed by influenza A NS1, growth recovery by OD600. Potency, µM (highest dose often 46.1 µM), inactives show top-dose activity, positive = more growth. 270,000 tested, 0.4% active. AID 2326, 2010; active means well fitted rising curve with a large enough effect; inconclusive means small, poorly fitted or top-dose-only effect; inactive means no such curve, though single readings can be large or run the other way; also: nearly all actives have a fitted effect of over 50% in size
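Recovery from NS1-induced slow growth read by OD600 in budding yeast switched to galactose assay medium (pH 6.0, -URA) at 1:100 dilution. Compound 23 nl per well; the matching strain lacking NS1 serves as control.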
SARS PLP yeast = qHTS of Yeast-based Assay for SARS-CoV PLP. AID 485353, 2010. S. cerevisiae expressing SARS-CoV PLpro, growth rescue; control for the full effect not named in the record. 330,000 tested, 0.19% active. Potency, µM (series often up to 32.9 µM), without a hit: at the top dose activity, positive = growth rescue; active means well fitted rising curve with a large enough effect; inconclusive means small, poorly fitted or top-dose-only effect; inactive means no such curve, though single readings can be large or run the other way; also: 0% is about no effect; nearly all actives have a fitted effect of over 55% in size; growth read by luminescence after 48 h
2A StopGo = High Throughput Screening for Foot and Mouth Disease Virus Antivirals; 410,000 tested, 1.2% active; Potency, µM (titrated, usually from 57.9 µM), without a hit: at the top dose signal change, negative = less light; human cells with a luciferase reporter of 2A StopGo recoding; control for the full effect not named in the record; AID 1159524, 2015; active = well fitted falling curve with a large enough effect; inconclusive = small, poorly fitted or top-dose-only effect; inactive = no such curve, though single readings can be large or run the other way; tested in HEK293T cells; also: % is scaled to controls: 0 for no effect and ±100 for the full control effect; nearly all actives have a fitted effect of over 45% in size; luciferase light after 4 h
The depositor's hits bear a star; & = joins results of further samples; [ ] = dose if it differs, or a comment. Unless noted, calls follow the shape of the dose curve; as a rule, active = well fitted curve in the direction sought with a large enough effect; inconclusive = small, poorly fitted or top-dose-only effect, or another doubt; inactive = no such curve, though single readings can be large; an effect the other way counts as inactive or inconclusive. Potency is read from the fitted curve at half-maximal effect.

Results for CCN(CC)CCNC(=O)c1ccc2c(=O)n(C3CCCC3)c(=S)[nH]c2c1 ?
Cruzain inh noDet: -3%; Cruzain Triton: 0.3%; MARV entry inh: 8.2µM*; LASV entry inh: inconclusive; RE007 growth inh: 7%; NS1 inh: -2%; SARS PLP yeast: 4%; 2A StopGo: -10%

What do the screens show for `CC(=O)c1sc(NC(=O)CCS(=O)(=O)c2ccc(Cl)cc2)nc1C`?
MARV entry inh: inconclusive; LASV entry inh: inconclusive; RE007 growth inh: -16%; SARS PLP yeast: -3%; 2A StopGo: -12%

What do the screens show for `ClCc1ncc(-c2ccc(Cl)cc2)o1`?
MARV entry inh: inconclusive; LASV entry inh: inconclusive; RE007 growth inh: -10%; SARS PLP yeast: 0%; 2A StopGo: -19%

Results for Cc1ccccc1S(=O)(=O)Nc1ncnc2ccccc12 ?
MARV entry inh: 2%[46.1 µM]; LASV entry inh: 3%; RE007 growth inh: -17%; NS1 inh: -8%; SARS PLP yeast: -6%; 2A StopGo: 18%

What do the screens show for `COc1ccc(NS(=O)(=O)c2cccc(C(=O)NN=Cc3ccc(OC)cc3OC)c2)cc1`?
MARV entry inh: 29%; LASV entry inh: -11%; RE007 growth inh: 11%; SARS PLP yeast: -3%; 2A StopGo: -9%

How did CCCCCN(C(=O)NC(=O)Nc1nncs1)S(C)(=O)=O do in these assays?
Cruzain inh noDet: -7%; Cruzain Triton: -0.6%; MARV entry inh: 6%; LASV entry inh: -2%; RE007 growth inh: 0%; NS1 inh: -10%; SARS PLP yeast: 25%

How did Cc1[nH]c2ccccc2c1CCO do in these assays?
Cruzain inh noDet: 5%; Cruzain Triton: -5.3%; MARV entry inh: 5%; LASV entry inh: -11%; RE007 growth inh: -10%; NS1 inh: -7%; SARS PLP yeast: -1%; 2A StopGo: -18%

How did CCCCn1c(N)c(N(CC(C)C)C(=O)CC2OC(=O)c3ccccc32)c(=O)[nH]c1=O (centres undefined) do in these assays?
MARV entry inh: 3%[46.1 µM]; LASV entry inh: 21%; RE007 growth inh: 36%; SARS PLP yeast: 1%; 2A StopGo: -19%

Results for CCCOc1nc(N)c(C#N)c(-c2ccccc2F)c1C#N ?
Cruzain inh noDet: -5%; Cruzain Triton: -7.7%; MARV entry inh: -8%; LASV entry inh: inconclusive; RE007 growth inh: 21%; NS1 inh: -8%; SARS PLP yeast: -2%; 2A StopGo: -6%

How did COc1ccc(-c2nnnn2C)cc1S(=O)(=O)NCCc1ccccc1 do in these assays?
Cruzain inh noDet: 7%; Cruzain Triton: 0.6%; MARV entry inh: 13%; LASV entry inh: -15%; RE007 growth inh: 3%; NS1 inh: -4%; SARS PLP yeast: 5%; 2A StopGo: 93%[activator]

Results for COCCC(=O)N1CCC(Oc2ccc(C(=O)NC3CCCCC3)cc2)CC1 ?
RE007 growth inh: -4%; NS1 inh: 13%; SARS PLP yeast: -1%; 2A StopGo: -4%

How did Cc1c(NC(=S)N/N=C/C=C/c2ccc([N+](=O)[O-])cc2)c(=O)n(-c2ccccc2)n1C do in these assays?
Cruzain inh noDet: inconclusive; Cruzain Triton: -26%; MARV entry inh: 4%; LASV entry inh: 2%; RE007 growth inh: -20%; NS1 inh: 9%; SARS PLP yeast: -8%; 2A StopGo: inconclusive

What do the screens show for `O=C(NCc1ccc(F)cc1)c1cccc2c1C(=O)N(Cc1cccnc1)C2`?
MARV entry inh: -1%; LASV entry inh: 15%; RE007 growth inh: -6%; SARS PLP yeast: 7%; 2A StopGo: 2%

How did CC(=O)c1c(C)[nH]c(C(=O)Nc2ccc(Cl)cc2F)c1C do in these assays?
MARV entry inh: inconclusive; LASV entry inh: inconclusive; RE007 growth inh: 5%; NS1 inh: 1%; SARS PLP yeast: -2%; 2A StopGo: 45%[activator]

What do the screens show for `COc1ccccc1OCCC(=O)OCC(=O)NC(=O)NC(C)(C)C`?
Cruzain inh noDet: 7%; Cruzain Triton: -6.6%; MARV entry inh: inconclusive; LASV entry inh: -11%; RE007 growth inh: 20%; NS1 inh: -2%; SARS PLP yeast: 2%; 2A StopGo: -10%

How did CS(=O)(=O)c1ccc2nc(NC(NC(=O)c3ccco3)(C(F)(F)F)C(F)(F)F)sc2c1 do in these assays?
Cruzain inh noDet: 6%; Cruzain Triton: -0.6%; MARV entry inh: -11%&-11%; LASV entry inh: -22%[14.3 µM]; RE007 growth inh: -1%; NS1 inh: 4%; SARS PLP yeast: 7%; 2A StopGo: 4%

Results for CCOc1ccc(NC(=O)N(CCN(C)C)C(C)c2ccncc2)cc1 (centres undefined) ?
Cruzain inh noDet: -9%; Cruzain Triton: 5.7%; RE007 growth inh: -9%; NS1 inh: 0%; SARS PLP yeast: -3%; 2A StopGo: -12%

Results for COc1ccc(S(=O)(=O)Nc2c(C)n(C)n(-c3ccccc3)c2=O)cc1Br ?
Cruzain inh noDet: 14%; Cruzain Triton: -1.8%; LASV entry inh: -4%[46.1 µM]; RE007 growth inh: 1%; NS1 inh: 0%; SARS PLP yeast: 0%; 2A StopGo: 3%&4%

What do the screens show for `CCOc1ccc(N(CC(=O)Nc2ccccc2F)S(=O)(=O)c2c(C)[nH]c(=O)[nH]c2=O)cc1`?
MARV entry inh: 8%[46.1 µM]; LASV entry inh: inconclusive; RE007 growth inh: 5%; NS1 inh: -4%; SARS PLP yeast: 2%; 2A StopGo: -10%

How did O=C(Nc1cccc(S(=O)(=O)N2CCCCC2)c1)c1ccc2ccccc2n1 do in these assays?
Cruzain inh noDet: inconclusive; Cruzain Triton: -5.5%; MARV entry inh: -22%; LASV entry inh: -26%; RE007 growth inh: 4%; NS1 inh: 22%; SARS PLP yeast: -7%; 2A StopGo: 23%

How did Cc1cc(-c2ccccc2)nc2c(Br)c(=O)[nH]n12 do in these assays?
RE007 growth inh: 1%; NS1 inh: inconclusive; SARS PLP yeast: 1%; 2A StopGo: -3%

What do the screens show for `Cn1nc(C(=O)OCC(=O)c2ccc(Br)cc2)c2ccccc2c1=O`?
MARV entry inh: 12%; LASV entry inh: -3%; RE007 growth inh: 4%; SARS PLP yeast: 1%; 2A StopGo: -7%

How did CN(C)C(=S)N=c1ssc(=S)n1Cc1ccco1 do in these assays?
MARV entry inh: inconclusive; RE007 growth inh: -20%; 2A StopGo: -22%

How did Cc1nc(-n2nc(C)c(CCC(C)C)c2C)sc1C(=O)Nc1ccc(Cl)cc1 do in these assays?
Cruzain inh noDet: 5%; Cruzain Triton: -1.5%; MARV entry inh: 11%[46.1 µM]; LASV entry inh: 33%[46.1 µM]; 2A StopGo: 23%

Results for Cc1ccc(NC(=O)CCN2CCN(C)CC2)cc1 ?
MARV entry inh: 1%[46.1 µM]; LASV entry inh: 19%[46.1 µM]; RE007 growth inh: 16%; NS1 inh: -10%; SARS PLP yeast: 4%; 2A StopGo: -11%

Results for Cc1nnc(NC(=O)CSc2ccc(-c3cccnc3)nn2)s1 ?
MARV entry inh: -18%[46.1 µM]; LASV entry inh: 16%[46.1 µM]; RE007 growth inh: -6%; SARS PLP yeast: 0%; 2A StopGo: 1%

Results for Cc1nc(-c2ccncc2)nc(NCCNc2ccc(C(F)(F)F)cn2)c1Cl ?
MARV entry inh: 14%; LASV entry inh: 2%; RE007 growth inh: 4%; NS1 inh: 2%; SARS PLP yeast: -5%; 2A StopGo: inconclusive

How did Cc1ccccc1-n1c(-c2ccc(Cl)cc2)cnc1SCC(=O)NC1CCS(=O)(=O)C1 (centres undefined) do in these assays?
Cruzain inh noDet: inconclusive; Cruzain Triton: -7.9%; MARV entry inh: -41%; LASV entry inh: -16%; NS1 inh: -29%; SARS PLP yeast: 5%; 2A StopGo: 0%

What do the screens show for `CS(=O)(=O)N1CCC(C(=O)N2CCN(c3cccc(Cl)c3)CC2)CC1`?
MARV entry inh: inconclusive; LASV entry inh: 20%[46.1 µM]; RE007 growth inh: -2%; SARS PLP yeast: -2%; 2A StopGo: -11%

How did Cc1ccc(S(=O)(=O)NCCc2cccs2)cc1 do in these assays?
RE007 growth inh: 0%; NS1 inh: 1%; SARS PLP yeast: 0%; 2A StopGo: 101%[activator]

How did CC(Oc1ccccc1)C(=O)NC1CCCCCCC1 (centres undefined) do in these assays?
MARV entry inh: -1%[46.1 µM]; LASV entry inh: -17%[46.1 µM]; RE007 growth inh: 7%; NS1 inh: -13%; SARS PLP yeast: -3%; 2A StopGo: -9%

How did CCCCCc1cc(O)c2c(C)cc(=O)oc2c1 do in these assays?
Cruzain inh noDet: -7%; Cruzain Triton: -5.1%; MARV entry inh: -85%; LASV entry inh: inconclusive; RE007 growth inh: 9%; NS1 inh: -16%; SARS PLP yeast: -32%; 2A StopGo: 0%

What do the screens show for `O=C1CCCN1CCCNC(=S)Nc1cccc2ccccc12`?
MARV entry inh: -7%[46.1 µM]; LASV entry inh: 12%[46.1 µM]; RE007 growth inh: 1%; NS1 inh: 3%; SARS PLP yeast: 1%; 2A StopGo: 7%

How did CCOC(=O)c1c(-c2ccccc2)csc1NC(=O)c1cc(-c2ccc(Br)cc2)on1 do in these assays?
Cruzain inh noDet: 7%; Cruzain Triton: -2.1%; MARV entry inh: inconclusive; LASV entry inh: 2%[46.1 µM]; 2A StopGo: 9%

Results for O=C(N/N=C\c1ccccn1)c1ccccc1O ?
LASV entry inh: 6%; RE007 growth inh: -26%; SARS PLP yeast: -6%; 2A StopGo: -31%

What do the screens show for `CC(=O)Nc1cccc(N)c1`?
Cruzain inh noDet: -3%; Cruzain Triton: -3.8%; RE007 growth inh: 1%; SARS PLP yeast: -3%; 2A StopGo: -1%

What do the screens show for `O=C(NCc1cccnc1)C1CC(=O)N(CCc2ccccc2)C1` (centres undefined)?
Cruzain inh noDet: 10%; Cruzain Triton: 7.4%; RE007 growth inh: 1%; NS1 inh: 11%; SARS PLP yeast: 4%; 2A StopGo: 6%

Results for Cc1csc(NC(=O)CSc2nnc(NC(=O)COc3ccccc3)s2)n1 ?
Cruzain inh noDet: 7.9µM*; Cruzain Triton: 2.4%; MARV entry inh: 3%; LASV entry inh: 2%; RE007 growth inh: -7%; NS1 inh: inconclusive; SARS PLP yeast: 5%; 2A StopGo: 14%
